Screens as filed in PubChem.
Sfp inh – Sfp phosphopantetheinyl transferase inhibition | Biochemical Sfp PPTase activity, qHTS | Potency, µM, without a hit: max response, negative = inhibition, actives largely listed as inhibitors | 310,000 tested, 3.5% active | AID 1490 | Q9F4F7; active = well fitted inhibition curve with a large enough effect; inconclusive = small, poorly fitted or top-dose-only effect, or another doubt; inactive = no such curve, though single readings can be large or run the other way;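 note: the enzyme is Sfp with the accession as filed and its product quenches rhodamine fluorescence; potency is the fitted concentration of half-maximal effect; 0% = enzyme reaction without inhibitor and -100% = no enzyme wells; top concentration of the series not given in the record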
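Sfp 15 nM + cpd, 15 min RT; start w/ rhodamine-CoA 5 uM, BHQ-2-YbbR 12.5 uM (final); 50 mM Hepes pH 7.6, 10 mM MgCl2, 0.01% NP-40, 0.01% BSA; read 525/598 nm at 0 and 30 min.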
ClpP mod – qHTS Assay for Activators of ClpP | ATP-dependent Clp protease proteolytic subunit (Bacillus subtilis (strain 168)), P80244 | purified B. subtilis ClpP, FRET peptide cleavage, 20 min | Potency, µM (titrated, usually from 57.5 µM), inactives show at the highest dose activity change, negative = active | 340,000 tested, 1.9% active; active = well fitted falling curve with a large enough effect; inconclusive = small, poorly fitted or top-dose-only effect; inactive = no such curve, though single readings can be large or run the other way; note: potency is the fitted concentration of half-maximal effect; the source files actives as falling curves though it sought activators and does not explain the sign; nearly all actives have a fitted effect of over 65% in size; many hits overshoot -100%
Target sequence (P80244 whole entry, looked up): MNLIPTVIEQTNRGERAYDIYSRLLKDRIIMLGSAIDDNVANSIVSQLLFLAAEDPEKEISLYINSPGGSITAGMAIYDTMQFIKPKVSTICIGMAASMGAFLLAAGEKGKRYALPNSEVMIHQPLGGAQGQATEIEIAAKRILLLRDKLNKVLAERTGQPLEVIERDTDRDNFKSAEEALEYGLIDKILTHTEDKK
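FRET quenching reversal measured ClpP activation: 10 microg/mL B. subtilis ClpP at pH 8 with the FRET-FV decapeptide, read at 430 nm after 320 nm excitation. The 20-min minus 0-min signal was scaled between DMSO/no-enzyme wells and ADEP (5.8 microM final).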
D2 potentiator – human D2 receptor positive allosteric modulation; AID 624464; DiscoveRx D2 beta-arrestin cells, luminescence, 90 min; 100% = 57 uM dopamine signal; P14416; 360,000 tested, 0.23% active; potentiation, % (test concentration not listed); active = potentiation of 50% or more; inconclusive = 30% to 50%; inactive = 30% or less;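 note: compound concentration not given in the record; tested on top of an EC20 dose of dopamine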
Target sequence (P14416 whole entry, looked up): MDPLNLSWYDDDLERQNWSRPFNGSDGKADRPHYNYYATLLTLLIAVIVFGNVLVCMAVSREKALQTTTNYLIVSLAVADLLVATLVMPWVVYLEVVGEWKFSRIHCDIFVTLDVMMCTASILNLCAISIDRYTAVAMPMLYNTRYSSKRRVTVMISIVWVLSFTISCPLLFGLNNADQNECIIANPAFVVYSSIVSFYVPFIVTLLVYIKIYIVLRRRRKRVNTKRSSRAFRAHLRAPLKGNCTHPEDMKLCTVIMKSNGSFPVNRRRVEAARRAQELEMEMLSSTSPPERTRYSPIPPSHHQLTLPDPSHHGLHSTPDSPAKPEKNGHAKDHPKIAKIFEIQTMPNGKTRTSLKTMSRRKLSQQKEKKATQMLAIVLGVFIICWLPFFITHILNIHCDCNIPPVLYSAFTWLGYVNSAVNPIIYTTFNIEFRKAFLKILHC
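PathHunter D2 cells, attached overnight at 37 deg C, received compound in DMSO plus dopamine at EC20 (50 nM final) for 90 min at 37 deg C. Beta-arrestin recruitment was read as luminescence after 1 h with detection reagent at ambient temperature.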
Menin-MLL FL inh – inhibitors of human menin-MLL interaction, wild-type MLL peptide; Fluorescence polarization, fluorescein-MLL peptide displacement from menin; FP activity change, % at 61.4 µM; 290,000 tested, under 10 active; AID 1766; inconclusive = falling polarisation curve, or a change in total fluorescence; inactive = total fluorescence flat and polarisation flat or rising; no compound was filed as active; the % refers to the polarisation; negative = inhibition;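 note: % of control where 0% means no effect; inhibitors lower the polarisation; unlabelled MLL peptide was the positive control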
TRPV1 PAM – human TRPV1 potentiation; TRPV1-expressing cells, Fluo-8 calcium influx, capsaicin EC20 potentiation; host cell line not named in the record; control for the full effect not named in the record; 320,000 tested, 0.02% active; Q8NER1; AID 540277; potentiation, % at 8.33 µM; active means potentiation above 80%; inconclusive means 30% to 80%; inactive means below 30%; note: 0% is about no effect
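Fluo-8 calcium influx in TRPV1-expressing cells, kinetic read (ex 480/em 520 nm). Compound added and read 3 min for agonist activity, followed by capsaicin at EC20 final and 2 min further read for enhancement.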
gsp agonist – agonists of gsp mutant (McCune-Albright syndrome); gsp mutant cells, cAMP HTRF, 30 min; control for the full effect not named in the record; Potency, µM (titrated, usually from 76.9 µM), without a hit: at the highest dose activation (cAMP increase), most hits filed as activators; 340,000 tested, 0.13% active; AID 624287; active = well fitted activation curve with a large enough effect; inconclusive = small, poorly fitted or top-dose-only effect, or another doubt; inactive = no such curve, though single readings can be large or run the other way; cell line not stated here;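 note: phosphodiesterase inhibitor Ro 20-1724 added with compounds to block cAMP breakdown; potency is the fitted concentration of half-maximal effect; nearly all actives have a fitted effect of over 60% in size; about a fifth of the inactives were tested at one dose only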
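Cells stably selected in G418 were plated at 2000/well, grown 16-24 hr, then given compounds in DMSO with the PDE inhibitor […] (300 uM solution added) for 30 min at 37C; cAMP was read by HTRF.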
gsp antag – antagonists of gsp mutant (McCune-Albright syndrome) | gsp-mutant cells, cAMP HTRF, 30 min; control for the full effect not named in the record | Potency, µM (highest dose often 76.9 µM), for the others: top-dose activity change, negative = inhibition, hits mostly inhibitors | 340,000 tested, 0.4% active | AID 624288; active = falling curve of any shape with a large fitted effect; inconclusive = falling curve, mostly with a smaller effect; inactive = flat or rising curve; cell line not stated here;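 note: intracellular cAMP measured with PDE inhibitor Ro 20-1724 present during compound exposure; potency is the fitted concentration of half-maximal effect; % is set by controls: 0 for no effect and ±100 for the full control effect; nearly all actives have a fitted effect of over 65% in size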
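Cells in G418 medium, seeded 16-24 h, 37C; buffer exchange to DPBS + 1 mM CaCl2, 0.5 mM MgCl2, 0.05% BSA; cpds in DMSO + […] (300 uM stock), 30 min 37C; HTRF cAMP detection.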
Active calls of the source: *; i = inactive; ? = inconclusive; nt = not tested or not shown; & = joins results of further samples; [ ] = dose if it differs, or a comment.

SMILES	Sfp inh	ClpP mod	D2 potentiator	Menin-MLL FL inh	TRPV1 PAM	gsp agonist	gsp antag
Cc1ccc2nc(-c3cccc(SC4CCCCC4)c3)c(NCc3ccccc3)n2c1	nt	4.3%&4.8%	-7	nt	nt	13%	?
CCOC(=O)N1CCN(c2c(NCC3CCN(Cc4cccc(C)c4)CC3)c(=O)c2=O)CC1	14%	2.1%	-5	0.4	6	-25%	7%
CCCCCC1C(=O)CCC1CC(=O)OC (stereo not given)	12%	1.2%	3	0.9	nt	nt	1%
CCCCN1CC(=O)N2[C@H](c3ccc(Cl)cc3)[C@@H]3C(=O)N(CC)C(=O)[C@@H]3[C@]2(C)C1=O	21%	2.2%	-8	-8.0	-9	4%	1%
Cc1ccc(C)c(NS(=O)(=O)c2ccc(OCC(=O)NCC3CCCO3)cc2)c1 (stereo not given)	14%	nt	-3	1.7	12	-7%[15.4 µM]	5%
CC1CCN(C(=O)C2CCCN(S(=O)(=O)c3ccc4c(c3)CC(C)N4C(=O)C3CC3)C2)CC1 (stereo not given)	2%	0.4%	2	-1.8	-8	-23%	-7%
O=C(CSc1ccccc1C(=O)N1CCN(c2ccc([N+](=O)[O-])cc2)CC1)N1CCCC1	nt	0.6%	4	nt	nt	18%[15.4 µM]	-18%
COc1ccccc1C(=O)Nc1ccnn1C1CCN(C(=O)c2ccoc2)CC1	nt	-1.3%	-3	nt	nt	4%	-5%
Cc1ccccc1SCc1noc(C(=O)NC(C)C)c1C(=O)O	-13%	-0.7%	-11	1.9	18	1%	-7%
CCOc1ccccc1NC(=O)COc1coc(CN2CCc3ccccc32)cc1=O	nt	nt	-5	nt	-7	-4%[15.4 µM]	-19%
COc1ccc(-c2cc(C(=O)N3CCc4ccccc4C3)no2)cc1	-6%	-3.5%	-13	-0.4	-9	4%	6%
CC(Oc1ccc(Cl)cc1Cl)C(=O)Nc1ncccn1 (stereo not given)	-2%	-0.9%	13	2.8	nt	?	5%
O=c1oc2ccccc2c2c1C1O[C@](c3ccsc3)(Cc3c1ccc1ccccc31)O2	-29%	nt	nt	13[11.7 µM]	i	nt	nt
Cc1ccc(-c2ccc(C(=O)NCCCNC(=O)c3cnccn3)o2)cc1Cl	4%	nt	-1	2.3	-5	22%	-6%
Cc1occc1C(=O)N1CCCC(N2CCN(c3cccc(Cl)c3)CC2)C1 (stereo not given)	-4%	0.6%	-27	nt	15	-26%	-4%
COc1ccccc1N1CCN(C(=O)c2cc(-c3ccc(F)cc3)on2)CC1	-6%	-4.1%	-1	4.4	17	3%	10%
Cc1cc(OCC(=O)Nc2ccncc2)ccc1Cl	5%	-1.2%	-5	-3.4	-7	10%[15.4 µM]	-5%
CCc1noc(N)c1C(=O)Nc1ccc(F)c(Cl)c1	17%	-1.2%	5	4.7	-7	0%	6%
Cc1noc(C)c1S(=O)(=O)N(C)C[C@H]1OCCCC[C@H](C)Oc2ccc(NC(=O)CCCN(C)C)cc2C(=O)N([C@H](C)CO)C[C@@H]1C	nt	-2.9%	-4	nt	nt	-76%[inhibitor]	nt
COc1ccc(-n2nnnc2Sc2ccc(S(=O)(=O)N3CCOCC3)cn2)cc1	45µM*	-5.8%	6	-3.5	4	-3%	9%
Cc1ccc2nc(-c3ccncc3)cc(C(=O)N3CCOCC3)c2c1	5%	1.2%	-1	nt	7	0%[15.4 µM]	1%
O=C(COc1ccc(C(=O)NCc2cccnc2)cc1)Nc1cccc(C(F)(F)F)c1	nt	?	-6	nt	1	18%[15.4 µM]	?
COc1ccc(C2C(C#N)=C(C)NC(C)=C2C#N)c(OC)c1	8%	nt	-1	2.2	0	3%[15.4 µM]	2%
COc1ccc(N2CCN(S(=O)(=O)c3c(C)nc4sccn4c3=O)CC2)cc1	-5%	-4.0%	-4	-6.3	-15	-18%	3%

Taken from above.
Entry of COc1ccc(N2CCN(S(=O)(=O)c3c(C)nc4sccn4c3=O)CC2)cc1 under gsp antag: 3%
Entry of O=c1oc2ccccc2c2c1C1O[C@](c3ccsc3)(Cc3c1ccc1ccccc31)O2 under Menin-MLL FL inh: 13[11.7 µM]
Entry of COc1ccc(C2C(C#N)=C(C)NC(C)=C2C#N)c(OC)c1 under gsp antag: 2%

Next compounds
SMILES	Sfp inh	ClpP mod	D2 potentiator	Menin-MLL FL inh	TRPV1 PAM	gsp agonist	gsp antag
O=C(COc1ccc(/C=N/NS(=O)(=O)c2ccccc2)cc1)Nc1ccccc1	-29%	1.3%	-5	2.7	2	-17%	6%
COc1ccc(CCNC(=O)CN(c2cccc([N+](=O)[O-])c2)S(C)(=O)=O)cc1OC	11%	0.8%	-4	3.4	0	11%	-3%
CCOC(=O)c1[nH]c2ccccc2c1NC(=O)CC	-4%	3.9%	-14	-4.8	-10	9%	-6%
N/C(=N\OC(=O)c1cc([N+](=O)[O-])ccc1Cl)c1ccccn1	-15%	-0.8%	?	1.5	-1	-1%[15.4 µM]	-18%
O=C(Nc1ccc(F)cc1)c1ccc(C(=O)N2CCOCC2)cc1	nt	1.7%	-3	nt	-4	-3%	6%
COc1cc(C(=O)Nc2nc3ccc(S(C)(=O)=O)cc3s2)cc(OC)c1C	-16%	nt	-1	1.9	-3	3%[15.4 µM]	-14%
Cc1ccc(C2=Nn3c(COc4ccc(Cl)cc4)nnc3SC2CC(=O)O)cc1 (stereo not given)	-9%	-14%	6	-1.5	-1	-1%[15.4 µM]	3%
COc1ccc(-n2nnnc2CNC(=O)C2CC(=O)N(c3ccc(F)cc3)C2)cc1 (stereo not given)	nt	-2.2%	-19	nt	nt	-13%	nt
Cc1ccccc1C(=O)Oc1ccccc1C(=O)N1CCOCC1	10%	0.2%	-9	2.7	10	5%	4%
CCOC(=O)N1CCN(Cc2nc(Cc3cccc(F)c3)no2)CC1	12%	-1.5%	-2	2.0	4	-9%[15.4 µM]	15%
CCc1ccc2c(CN3CCOCC3)cc(=O)oc2c1	-11%	nt	-5	-6.5	-2	-11%	4%
O=c1c2ccccc2ncn1CCCOc1ccccc1[N+](=O)[O-]	17%	0.9%	-12	-1.3	-2	6%	-9%

3 structures from above, sorted by heavy-atom count, smallest number first.
SMILES	Sfp inh	ClpP mod	D2 potentiator	Menin-MLL FL inh	TRPV1 PAM	gsp agonist	gsp antag
O=c1c2ccccc2ncn1CCCOc1ccccc1[N+](=O)[O-]	17%	0.9%	-12	-1.3	-2	6%	-9%
CCOC(=O)N1CCN(Cc2nc(Cc3cccc(F)c3)no2)CC1	12%	-1.5%	-2	2.0	4	-9%[15.4 µM]	15%
Cc1ccc(C2=Nn3c(COc4ccc(Cl)cc4)nnc3SC2CC(=O)O)cc1 (stereo not given)	-9%	-14%	6	-1.5	-1	-1%[15.4 µM]	3%

(list continues)
SMILES	Sfp inh	ClpP mod	D2 potentiator	Menin-MLL FL inh	TRPV1 PAM	gsp agonist	gsp antag
Cc1ccc(-c2noc(-c3ccccc3C(=O)N3CCN(C)CC3)n2)cc1	12%	1.1%	-10	1.8	-8	?	4%
CC1(NC(=S)Nc2ccc3ccccc3c2)CCS(=O)(=O)C1 (stereo not given)	-8%	nt	3	-4.8	10	1%	0%
C=CCOc1ccc(/C=N\NC(N)=S)cc1	-15%	-1.1%	-13	0.2	3	?	-17%
CCOC(=O)N1CCN(C(=S)NC(C)(C)C)CC1	28%	-0.5%	-2	1.0	1	-14%	11%
CCNc1nc(OCCNS(=O)(=O)c2cc(C)ccc2C)nc(N(C)C)n1	3%	-0.9%	-11	-2.5	-8	13%	2%
Cc1cc(NC(=O)CSc2nc3ccccc3c(=O)n2Cc2ccccc2)no1	10%	-2.3%	-9	-2.6	-3	-10%	16%
COc1ccc(NC(=O)Cc2nnc(SCC(=O)NC3CCCCC3)n2C)cc1	4%	-0.2%	-6	-6.9	1	-6%[15.4 µM]	15%
CN(C(=O)COc1ncnc2ccc(Br)cc12)C1CCCCC1	nt	-0.1%	-7	nt	nt	-52%[inhibitor]	nt
O=C(CN1C(=O)COc2ccccc21)Nc1ccccc1F	11%	0.4%	-21	-0.6	-1	?	8%
O=C(Nc1ncccn1)c1cccs1	11%	0.4%	0	1.8	-3	-24%	7%
O=C(CSc1cccc[n+]1[O-])Nc1ccc2c(c1)OCO2	-3%	-0.2%	2	-1.4	10	18%	5%
CSc1nc2c(c(=O)[nH]c(=O)n2C)n1Cc1ccc(Cl)cc1	20µM*	1.1%	-5	-4.5	-17	1%[15.4 µM]	4%
CC1(C)CC(CC(=O)Nc2ccccn2)C(=O)O1 (stereo not given)	2%	0.4%	4	-1.3	3	17%	-3%
O=C(CSc1nc(-c2ccco2)cc(C(F)(F)F)n1)Nc1ccccc1C(F)(F)F	-5%	-14%	5	3.8	-34	9%	3%
CCOC(=O)[C@@H]1[C@H]2COc3ccc(Br)cc3[C@@H]2N2C(=O)N(c3ccc(OC)cc3)C(=O)[C@]12C	6%	-2.6%	-3	-0.3	14	24%	7%
O=C(OCC(=O)N1CCN(c2ccccc2)CC1)c1cccs1	nt	-3.8%	-20	nt	8	7%[15.4 µM]	3%
O=C(CSc1ccc2nnc(-c3cccnc3)n2n1)c1ccccc1	10%	nt	0	3.7	1	8%[15.4 µM]	2%
N#Cc1ccc(Cl)cc1NC(=O)CNc1cccc(S(=O)(=O)N2CCCC2)c1	nt	nt	-55	nt	0	13%[15.4 µM]	4%
CCOC(=O)c1ccc(NC(=O)c2cccc(S(=O)(=O)N3CCOCC3)c2)cc1	13%	1.4%	18	0.0	-15	20%	?
Cc1ccc(S(=O)(=O)NC2CC2)s1	17%	1.5%	-3	nt	-2	28%	-5%
Cc1ccc(S(=O)(=O)N2CCOCC2)cc1C(=O)N1c2ccccc2Sc2ccccc21	-3%	-0.9%	0	2.8	6	5%	4%
CC(/C=C/c1ccccc1F)=N\NC(=O)c1ccccc1	10%	0.3%	-2	-0.1	-15	-13%[15.4 µM]	-2%

An unsorted share of the library; any-hit rate near 5.1%.
